Source: PubChem
Vif TR-FRET = HIV-1 Vif–A3G interaction blockers – biochemical, TR-FRET, GST-Vif 1-94, biotin-A3G peptide, dose response retest, primary screen (AID 1117319); 260,000 compounds, 0.57% hits; one-dose inhibition, %; IC50 in µM for titrated hits; TR-FRET GST-Vif / biotin-A3G peptide binding; higher % means a stronger effect; test concentration not given here; strong numbers were not always called active;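 active = above the screen mean plus three standard deviations and confirmed in dose response; inconclusive = results disagree or hit not tested in dose response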;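 also: Vif residues 1-94 fused to GST binding biotinylated APOBEC3G peptide 110-148; 0% = full assay without inhibitor and 100% = GST in place of GST-Vif; retest series ran down from 100 µM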
E coli growth = blocks Escherichia coli growth; OD600, 23 h; stronger effect = lower value; OD600 absorbance (concentration not given with the values); 330,000 compounds, 0.21% hits; AID 1053175;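 active = OD600 absorbance below the run mean of sample wells minus 3.6 SD, in any replicate, cut at about 0.56 in these data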;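 also: stock transfer was 300 nL into about 60 µL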
HNF4A DNA FP = change in binding of human HNF4 alpha to DNA; P41235; 360,000 compounds, 0.3% hits; activity change, % at 10 µM; AID 1224865; HNF4a-FITC DNA binding, fluorescence polarization, 1 h; in the data active = activity change above about 30%, passing the limit was not always enough;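 also: controls were the assay level and a saturating level of protein; the project sought stronger binding though the title names inhibitors; some compounds called inactive have numbers as strong as hits; positive values seem to mean higher polarization but the record does not say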
Target sequence (P41235 whole entry, looked up): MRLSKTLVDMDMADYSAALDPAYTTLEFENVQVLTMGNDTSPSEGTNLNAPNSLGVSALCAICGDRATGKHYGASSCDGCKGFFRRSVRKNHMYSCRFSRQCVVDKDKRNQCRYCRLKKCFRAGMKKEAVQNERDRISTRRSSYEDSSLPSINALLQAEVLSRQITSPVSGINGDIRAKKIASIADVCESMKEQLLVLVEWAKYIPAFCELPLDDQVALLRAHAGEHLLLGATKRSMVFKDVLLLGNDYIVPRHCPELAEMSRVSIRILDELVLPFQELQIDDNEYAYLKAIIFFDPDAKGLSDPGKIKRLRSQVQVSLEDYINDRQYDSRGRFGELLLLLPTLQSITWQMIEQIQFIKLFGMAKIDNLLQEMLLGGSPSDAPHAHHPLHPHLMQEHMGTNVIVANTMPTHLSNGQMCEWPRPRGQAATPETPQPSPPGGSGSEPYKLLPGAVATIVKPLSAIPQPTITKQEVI
RanGTP-Impb inh = inhibitors of RanGTP-importin-beta interaction, primary screen, biochemical, FRET, CFP-Ran, YFP-importin-beta, homogeneous; 300,000 compounds, 1.1% hits; inhibition, % (concentration not given with the values); cell-free CFP-Ran/YFP-importin-beta FRET ratio;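 active = most replicates above 15%; inconclusive = exactly half above 15%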;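 also: 0% = DMSO wells and 100% = Ran loaded with GDP instead of GTP; wells of about 40 µL received 100 nL stock; the first replicate is given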
AF4-AF9 inh = inhibitors of human MLL-AF4/AF9 interaction | P42568 | AlphaScreen, biotin-AF4 peptide binding to FLAG-AF9 | inhibition, % at 10 µM | 350,000 compounds, 0.47% hits;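 active = every replicate reaching a set inhibition limit, whatever the replicate mean, cut at about 25% in these data; inconclusive = mean inhibition reaches that limit but some replicates miss it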;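 also: 0% = plate neutral control median and 100% = total signal loss; the record names both 10 and 1 µM as test concentration; the first replicate is given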
UCH37 DUB inh = human UCH37 deubiquitinating enzyme inhibition | Q9Y5K5 | purified proteasome/UCH37, Ub-AMC cleavage fluorescence | inhibition, % (no concentration beside the values) | 330,000 compounds, 0.33% hits | AID 588478;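 active = mean of two replicates above 20%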;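 also: 0% = compound-free wells with enzyme and 100% = wells lacking proteasome; stock transfer was 100 nL into about 20 µL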
Target sequence (Q9Y5K5 whole entry, looked up): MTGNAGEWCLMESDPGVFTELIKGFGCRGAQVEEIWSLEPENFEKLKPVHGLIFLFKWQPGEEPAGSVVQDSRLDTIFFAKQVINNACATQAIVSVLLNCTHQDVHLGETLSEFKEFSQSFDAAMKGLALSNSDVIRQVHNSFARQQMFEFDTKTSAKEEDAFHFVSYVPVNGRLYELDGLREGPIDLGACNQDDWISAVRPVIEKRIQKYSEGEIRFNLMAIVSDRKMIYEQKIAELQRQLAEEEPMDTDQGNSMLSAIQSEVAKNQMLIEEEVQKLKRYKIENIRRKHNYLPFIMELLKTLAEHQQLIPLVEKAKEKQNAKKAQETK
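Schedule: 30 min plus 25 min, room temperature / Material: human UCH37 within purified proteasomes / Technique: AMC fluorescence intensity at 355/460 nm / Buffer or medium: pH 7.4 Tris-HCl (50 mM) with ovalbumin, ATP-MgCl2, DTT / Controls: wells without proteasome as full block, compound-free enzyme plus substrate as uninhibited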
FGF22 binding = shifts melting point of recombinant human FGF22; recombinant FGF22 thermal shift, SYPRO orange fluorescence; percent of sucrose octasulfate shift, DMSO zero; calls only at 9.99 µM; 340,000 compounds, 1.5% hits; AID 651658;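 active = melting point raised past a set limit in the mean and every replicate; inconclusive = no clear call; three in four hits are not shown here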
Target sequence (Q9HCT0 whole entry, looked up): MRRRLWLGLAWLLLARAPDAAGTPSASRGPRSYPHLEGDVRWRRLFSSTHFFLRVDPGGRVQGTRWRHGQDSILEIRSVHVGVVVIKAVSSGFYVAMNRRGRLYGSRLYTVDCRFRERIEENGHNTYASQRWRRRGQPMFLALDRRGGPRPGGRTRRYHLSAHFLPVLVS
* marks the source's active call; other numbers are inactive results; i = inactive; ? = inconclusive; nt = no result given; & = joins results of further samples. This is a subset; the hit share may differ from the screen's.

SMILES	Vif TR-FRET	E coli growth	HNF4A DNA FP	RanGTP-Impb inh	AF4-AF9 inh	UCH37 DUB inh	FGF22 binding
CN(C)C(=O)CCC(=O)N1CCCC(C(=O)c2ccc(C(F)(F)F)cc2)C1 (stereo not given)	-2.0%	0.695	3.8	1.0	-0.2	0.1	i
C#Cc1ccc2c(c1)COc1c3ccccc3nn1-2	nt	0.628	0.7	0.2	-3.0	2.6	i
CCC(=O)Nc1ccc(-c2nn3c(C)nnc3s2)cc1C	-6.0%	0.717	0.3	-4.8	nt	1.2	nt
CC(C)(C)C(=O)Nc1ccccc1-c1nc2ccccc2[nH]c1=O	nt	0.707	-1.0	0.9	-2.8	-1.0	i
O=C(Nc1cccc([N+](=O)[O-])c1)Nc1cnccn1	-1.2%	0.676	2.1	-2.9	1.3	4.3	i
CN(C)c1ccc(C(=O)N2CCCC(CCC(=O)N3CCN(c4ccccn4)CC3)C2)cc1 (stereo not given)	nt	0.712	-0.5	1.5	1.3	-0.7	i
COc1ccc(C2C(C(=O)O)c3ccccc3C(=O)N2C)cc1Br (stereo not given)	7.9%	0.717	2.2	-0.1	nt	5.0	nt
O=C(NNc1ccccc1[N+](=O)[O-])NC1CCCCC1	-0.2%	0.714	5.6	0.6	1.4	6.6	i
CCc1nc(C)cn1S(=O)(=O)c1cc(OC)c(C)cc1C	6.9%	0.759	0.1	-3.6	nt	-4.4	nt
CNC(=O)c1ccccc1S(=O)c1ccccc1C#N (stereo not given)	29.9%	0.701	-2.1	?	nt	0.8	nt
O=C(CN1CCC(O)(c2ccccc2)CC1)Nc1ccc2c(c1)OCCO2	0.8%	0.722	2.0	-0.2	0.3	0.5	i
O=[N+]([O-])c1cccc(/C=C/c2ccncc2)c1	-0.1%	0.699	5.3	-3.3	1.6	2.5	i
NC1=NC(=O)/C(=C/c2ccccc2OS(=O)(=O)c2ccccc2)S1	nt	0.736	-2.9	2.6	nt	-42.6	nt
COc1ccc(S(=O)(=O)NCC2CCCN(Cc3ccc(C)o3)C2)cc1 (stereo not given)	5.9%	0.643	-0.5	?	-2.9	3.2	i
COC(=O)c1cc2ccccc2n1S(=O)(=O)c1ccccc1	-2.1%	0.673	-1.0	-3.8	0.4	0.6	i

As entered above:
NC1=NC(=O)/C(=C/c2ccccc2OS(=O)(=O)c2ccccc2)S1 – HNF4A DNA FP = -2.9
CC(C)(C)C(=O)Nc1ccccc1-c1nc2ccccc2[nH]c1=O – RanGTP-Impb inh = 0.9

More entries follow.
SMILES	Vif TR-FRET	E coli growth	HNF4A DNA FP	RanGTP-Impb inh	AF4-AF9 inh	UCH37 DUB inh	FGF22 binding
CC1(C)C(=O)C2(CCCCC2)C(=O)OC1c1cccs1 (stereo not given)	-6.0%	0.707	0.6	-1.7	nt	0.7	nt
CC(=O)N1CCN(c2ccccc2NC(=O)COc2ccccc2C)CC1	13.4%	0.673	-3.4	2.5	-0.8	1.7	i
CCN(C(=O)CN1CCN(Cc2ccccc2)CC1)c1c(N)n(Cc2ccccc2)c(=O)[nH]c1=O	-13.7%	0.691	-4.3	9.2	-1.9	0.3	i
O=C(COc1ccccc1)Nc1ccc2[nH]c(=O)[nH]c2c1	19.4%	0.653	-1.3	10.4	4.9	-2.2	nt
CN1CCN(c2nc3c(c(=O)[nH]c(=O)n3C)n2Cc2ccc(Cl)cc2)CC1	nt	0.661	2.5	-5.2	0.6	3.6	i
Cc1ccc(CSCCNC(=O)CN(c2ccccc2)S(C)(=O)=O)cc1	3.3%	0.701	-0.9	-2.0	0.9	4.7	nt
CN1CCN(C(=O)c2cc([N+](=O)[O-])cc([N+](=O)[O-])c2)CC1	nt	0.659	-1.0	3.0	-1.8	0.6	i
O=C(COC(=O)c1ccccc1Cc1ccccc1)Nc1ccc(SC(F)F)cc1	nt	0.677	-3.5	2.6	-2.9	4.2	i
COc1ccccc1NC(=O)/C(C#N)=C/c1cccnc1	nt	0.71	-0.2	1.2	0.9	-0.8	i
Cc1ccc(S(=O)(=O)N2CCCCC2)cc1NC(=O)C1CCCO1 (stereo not given)	nt	0.66	-1.5	0.8	-1.2	-0.2	i
O=C(Cn1cc([N+](=O)[O-])cn1)N1CCc2ccccc2C1	-4.4%	0.666	-2.6	?	8.0	3.5	i
Cc1cc(C(=O)NNC(=S)NCC(C)C)cs1	3.8%	0.694	-1.8	-0.6	1.9	6.2	i
CC(=O)N/C(=N\c1nc(C)cc(C)n1)Nc1ccc(Cl)cc1Cl	1.9%	nt	0.7	2.1	-1.6	nt	i
Cc1ccc2c(c1)c1cccc3c1n2CCN3CCC(N)=O	?	nt	11.5	1.0	nt	-127.3	nt
OC(c1ccccc1)(c1ccccc1)C1CCN(C(=S)Nc2ccc(F)cc2)CC1	nt	0.71	4.8	nt	6.6	1.0	i
COc1ccc(CNc2nc(-c3cccnc3)nn2S(C)(=O)=O)cc1	-2.4%	0.665	-0.1	-1.6	-2.8	2.2	i
CCSc1c(C(=O)NC)ccc2c1C(=O)c1ccccc1C2=O	-1.7%	0.737	4.6	1.0	nt	1.0	nt
O=C(CCCn1c(=S)[nH]c2ccccc2c1=O)N1CCOCC1	-1.1%	0.689	7.3	0.1	nt	3.6	nt
C[C@@H]1CN([C@H](C)CO)C(=O)c2cc(Br)cnc2O[C@H]1CN(C)C(=O)c1ccccc1	-11.2%	nt	1.3	nt	-3.3&0.2&-1.1	nt	i
CCCc1ccc2oc(C(=O)N(C)Cc3cnccn3)c(C)c2c1	-8.1%	0.708	-1.4	-0.6	-2.6	1.7	i
CCOc1ccc(NC(=O)c2ccc(NC(=O)c3ccc(CN4CCOCC4)cc3)cc2)cc1	7.5%	0.696	1.1	2.0	-26.2	3.0	i
Cc1ccc(NC(=O)CSCC(=O)OC(C)C(=O)Nc2ccc(S(N)(=O)=O)cc2)c(C)c1 (stereo not given)	-3.2%	0.64	-2.5	2.1	-1.7	1.2	i
COC(=O)c1ccc(N2C(=O)CC(SCCN)C2=O)cc1 (stereo not given)	-1.9%	0.706	0.3	1.6	nt	2.4	nt
O=C(c1cccc(NS(=O)(=O)c2cccc(F)c2)c1)N1CCCC1	7.3%	0.705	2.0	-2.1	-2.3	1.0	i
Nc1c(C(=O)O)sc2nc3c(cc12)CCCC3	-4.7%	0.686	4.6	2.7	-0.6	1.6	i
Cc1cc(C(=O)N/N=C/c2ccc(Cl)c([N+](=O)[O-])c2)c(C)n1-c1ccc(F)cc1	nt	nt	-0.1	1.0	4.6	nt	i
C/C(=N/NC(=O)C1COc2ccccc2O1)c1ccc(Br)s1 (stereo not given)	-12.3%	nt	-3.3	0.1	-4.2	nt	nt
Cc1ccsc1C(=O)OC(C)C(=O)Nc1ccc(Cl)cn1 (stereo not given)	-1.4%	0.66	2.7	nt	-2.7	4.0	i
Cc1nnc(SCC(=O)NNC(=O)c2ccco2)s1	-0.1%	0.697	-4.8	-3.0	0.0	5.3	i
Cc1cc(=O)[nH]c2ccc(S(=O)(=O)NC3CCCCC3)cc12	15.2%	0.742	-1.2	9.4	-2.8	4.9	i
Cc1cc(C)n(Cc2cccc(F)c2)c(=O)c1C#N	16.5%	0.72	-0.8	-1.4	1.2	3.3	i
CC(=O)N/C(=C/c1ccc(OS(=O)(=O)c2ccc(C)cc2)cc1)C(=O)Nc1ccc(C(=O)O)cc1	nt	0.654	-3.6	5.2	-1.0	2.8	i
CCN1CCc2c(sc(NC(=O)Nc3ccc(Cl)c(Cl)c3)c2C(N)=O)C1	30.1%	0.537	-84.1	nt	-79.0	-56.0	i
Cn1ccc(C(=O)N/N=C/c2ccccc2[N+](=O)[O-])n1	nt	nt	-1.6	-1.9	-1.2	nt	i
C/C(CC(=O)NCC(C)C)=N\NC(=O)COc1cc(C)c(Br)cc1Br	16.1%	nt	-0.6	-3.6	nt	nt	nt
CN1CCN(CCCNC(=O)c2cn(C)c3ccc(S(=O)(=O)N(C)C)cc3c2=O)CC1	-3.3%	0.683	2.9	nt	-2.9	2.9	nt
O=C(Cc1cccs1)Nc1cccc(-c2nc3ccccc3o2)c1	75.7%	0.724	1.2	8.8	nt	0.4	nt
COc1ccc(/C=C/C(=O)O)cc1COc1ccccc1C	-4.1%	0.734	-1.7	1.5	nt	1.3	nt
O=C1CC(c2nc3ccccc3[nH]2)CN1c1ccccc1F (stereo not given)	-1.5%	0.729	-1.8	-3.2	-2.7	8.2	i
O=C(Nc1cccc2ncccc12)c1ccc(F)cc1	nt	0.716	0.3	2.4	-5.0	-0.2	i
CCOc1ccc(Nc2ncnc3c2cnn3C)cc1	nt	0.706	-3.0	-4.5	0.6	7.2	i
Cc1noc(C)c1CSCC(=O)Nc1cc(Cl)ccc1N1CCOCC1	nt	0.736	3.3	2.1	-2.0	2.5	i
CN1CCN(S(=O)(=O)c2ccc(NC(=S)NC(=O)C3CCCC3)cc2)CC1	1.8%	0.652	0.9	2.9	-1.7	3.6	i
O=C(C1CCC1)N1CCN(S(=O)(=O)c2ccc(Br)cc2Cl)CC1	-0.9%	0.708	-3.9	0.0	1.6	1.3	i
Cc1cc(C)nc(N2CCCC(C(=O)Nc3nnc(C)s3)C2)n1 (stereo not given)	3.0%	0.631	-3.5	-10.2	nt	-2.2	nt
COc1ccc(CCC(=O)Nc2ccc(OC)c(S(=O)(=O)N3CCCCC3)c2)cc1	-7.4%	0.698	1.6	nt	0.1	1.2	i
CCc1c(C)nc(N)n2c(SCC(=O)N3CCCC(C)C3)nnc12 (stereo not given)	14.9%	0.645	6.6	-2.8	nt	3.0	nt
Cc1ccsc1C1C(C#N)=C(N)OC2=C1C(=O)CC(C)C2 (stereo not given)	4.5%	0.673	1.7	0.1	-2.8	-0.2	i
Cc1ccc(S(=O)(=O)N(C)c2ccc(OC(=O)c3cccs3)cc2)cc1C	2.4%	0.718	1.4	nt	-1.2	-1.3	i
CCc1cc(=O)[nH]c(SCc2cccc3ccccc23)n1	-2.9%	0.696	-3.0	3.0	nt	3.0	nt
CCC(NC(=O)Cc1cccs1)c1ccccc1 (stereo not given)	0.2%	0.672	4.2	0.0	-0.8	2.8	i
Cc1ccc(CCN2CC(C(=O)NCCN3CCOCC3)CC2=O)cc1 (stereo not given)	-6.3%	0.696	nt	1.7	nt	-3.4	nt
CCCCSc1nc2c(cc1C#N)CCC2	8.0%	0.724	-5.0	-1.3	nt	-0.8	nt
COc1ccc2ccc(OCC(=O)Nc3cc(C)on3)cc2c1	-17.5%	0.709	0.1	nt	0.7	-0.4	i
Nc1c(C(=O)NCCc2ccccc2)nnn1Cc1ccc(Cl)cc1	nt	0.685	1.2	1.3	nt	0.9	nt
O=S(=O)(CS(=O)(=O)c1ccc(Cl)cc1)c1ccc(Cl)cc1	nt	0.663	-3.3	1.3	nt	-1.4	i
COc1ccc(C(=O)Nc2ccccc2C(=O)O)cc1Cl	nt	0.677	-2.0	-0.4	1.2	3.3	nt
O=c1sc2ccccc2c(N2CCCCC2)c1[N+](=O)[O-]	29.6%	0.711	-1.0	3.1	-2.1	6.2	i
Cc1ccc(-c2noc(CNc3ccccc3)n2)cc1	22.4%	0.675	-1.6	-1.6	nt	4.2	nt
CCCOc1ccc(NC(=O)c2c(-c3ccccc3)noc2C)cc1	0.0%	0.74	-2.2	5.9	-5.8	2.0	i
COCC(=O)n1nc(-c2ccccc2)nc1NCc1cccs1	-1.2%	0.719	0.1	nt	-0.5	2.7	i
N#CCCN(Cc1cccs1)C(=O)Nc1ccc(F)cc1	-5.4%	0.663	-0.9	1.8	-0.9	0.8	i
COc1ccc(C(=O)CN2C(=O)c3ccccc3S2(=O)=O)cc1	nt	0.643	4.5	7.4	nt	2.8	i
